From PubChem
YopH inh: YopH tyrosine phosphatase inhibitors, primary screen, biochemical, fluorescence Ex485/Em525; YopH tyrosine phosphatase [Yersinia enterocolitica]; inhibition, %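 (about 10 µM by stock and volumes)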; actives 0.16% (n = 140,000);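 active = inhibition of 50% or more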;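 note: controls were vehicle for no effect and minimum signal wells for full effect; inactives centre near -20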
Mtb H37Rv: M. tuberculosis H37Rv growth inhibitors, H37Rv strain (AID 1626). M. tuberculosis H37Rv growth inhibition; higher % means a stronger effect. inhibition, % at 10 µM, or IC50 in µM where a hit was titrated. actives 0.95% (n = 220,000);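 active = confirmed in a dose series; inconclusive = inhibition above 80% but not taken into the dose series; inactive = below 80% or under 30% at every dose of the series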;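 note: bacteria incubated seven days before Alamar blue readout; 0% = bacteria only wells and 100% = bacteria with antibiotic wells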
RecA splice inh: Mtb RecA intein splicing inhibitors, primary screen, biochemical, fluorescence, HTS; actives 0.75% (n = 290,000); inhibition, %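 (about 9 µM by stock and volumes)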; Protein RecA (Mycobacterium tuberculosis (strain ATCC 25618 / H37Rv)), P9WHJ3; cell-free RecA intein splicing; in the data active = inhibition above about 30%; inconclusive = no clear call, values can overlap the other calls;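 note: 0% = vehicle wells and 100% = reference inhibitor control wells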
Target sequence (P9WHJ3 whole entry, looked up, canonical isoform): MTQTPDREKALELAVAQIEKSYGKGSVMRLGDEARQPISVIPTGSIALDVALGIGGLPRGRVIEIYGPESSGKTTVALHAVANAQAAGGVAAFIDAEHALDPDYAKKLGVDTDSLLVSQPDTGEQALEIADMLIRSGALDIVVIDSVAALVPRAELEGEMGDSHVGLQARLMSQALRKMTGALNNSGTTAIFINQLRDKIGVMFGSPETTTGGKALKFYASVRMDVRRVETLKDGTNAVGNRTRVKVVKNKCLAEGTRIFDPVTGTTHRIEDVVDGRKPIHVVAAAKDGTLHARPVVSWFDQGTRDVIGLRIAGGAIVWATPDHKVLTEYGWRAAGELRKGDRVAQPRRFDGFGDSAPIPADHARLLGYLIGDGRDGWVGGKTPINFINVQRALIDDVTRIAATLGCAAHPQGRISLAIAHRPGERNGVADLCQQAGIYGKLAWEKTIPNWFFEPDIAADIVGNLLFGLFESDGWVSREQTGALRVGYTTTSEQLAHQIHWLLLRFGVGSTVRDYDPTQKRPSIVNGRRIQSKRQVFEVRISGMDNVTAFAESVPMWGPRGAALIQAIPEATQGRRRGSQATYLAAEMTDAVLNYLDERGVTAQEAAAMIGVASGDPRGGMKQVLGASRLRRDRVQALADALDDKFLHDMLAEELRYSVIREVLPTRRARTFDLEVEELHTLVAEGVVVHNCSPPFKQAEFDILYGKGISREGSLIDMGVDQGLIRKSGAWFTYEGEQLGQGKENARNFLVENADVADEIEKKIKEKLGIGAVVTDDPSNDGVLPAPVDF
Arbovirus anti: antivirals against arbovirus infection, primary screen, cell-based, full library, 10K replicate subset; actives 0.37% (n = 200,000); AID 1251, 2008; arbovirus infection cell-based antiviral screen; inhibition, % at 10 µM;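 active = inhibition from about 30%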;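 note: bluetongue infection of BSR cells; cell survival read as ATP light after 72 h; 0% = infected wells without compound and 100% = uninfected wells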
Mtb bLac sens: beta-lactam sensitization of Mtb H37Rv, H37Rv; actives 0.27% (n = 330,000); inhibition, % at 25 µM; M. tuberculosis H37Rv growth with meropenem, percent inhibition; hits of this screen are not shown here;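 active = about 74% or more and at least 40 points above the plate without the antibiotic, then above 30% in a dose series; inconclusive = first-round hits that could not be retested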;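 note: growth measured after seven days incubation then overnight dye step; 0% = bacteria only wells and 100% = bacteria with antibiotic; twin plates without the antibiotic show which effects depend on it; some results filed as inactive read as strong as hits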
Arbovirus anti repeat: further read-out of Arbovirus anti, marked with its call; inhibition, %; measured here: 10K subset replicate screen; many hits read low in the repeat;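 first of two repeat runs on a subset; 0% = infected and 100% = uninfected wells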
Starred values were filed as active, the others as inactive; ? = inconclusive; . = no result given. Only part of the results is shown; rates above refer to the full screens.

SMILES | YopH inh | Mtb H37Rv | RecA splice inh | Arbovirus anti | Mtb bLac sens | others
CCn1c2ccccc2c2cc(NC(=O)CSc3nnc(-c4ccccc4)o3)ccc21 | -12 | 17% | 1.6 | -10 | 100
CC(=O)N1c2ccc(S(=O)(=O)N3CCC(C(=O)Nc4cccc(Cl)c4)CC3)cc2CC1C (configuration not stated) | . | . | 1.0 | . | 1
O=C(Cn1cnc2c(nnn2-c2cccc(F)c2)c1=O)Nc1ccc2c(c1)OCCO2 | . | . | 2.4 | . | ?
Cc1ccc(OCC(=O)NNC(=O)c2cc3ccccc3o2)cc1 | -47 | -3% | -0.9 | 3 | -7
c1ccc(-c2csc(=Nc3cccnc3)n2CC2CCCO2)cc1 (configuration not stated) | -24 | -1% | 7.5 | -1 | -2
Cc1cc(C)n(-c2ccc(C(=O)Nc3ccc4c(c3)OCO4)cc2)n1 | -19 | 0% | 4.3 | -17 | 24
COc1ccc(C)cc1NC(=O)C(NCC1CCCO1)c1ccccc1 (configuration not stated) | -21 | -2% | 2.0 | -4 | 1
CCc1ccc2c(c1)C(c1ccncc1)=NNC(c1ccccc1)=N2 | . | 9% | 0.3 | -10 | 20
O=C(Nc1cccc2c1C(=O)NC2=O)c1cccnc1Cl | . | -3% | -2.1 | -2 | 2
COc1ccc(C(=O)CC(=O)C(=O)Nc2cccc(C(C)=O)c2)cc1 | . | . | 0.8 | . | 0
CCN(C(=O)COC(=O)CSc1ccccc1)c1c(N)n(Cc2ccccc2)c(=O)[nH]c1=O | . | . | 1.9 | . | -13
CC1CCCN(C2=C(NS(=O)(=O)c3ccc(Br)cc3)C(=O)c3ccccc3C2=O)C1 (configuration not stated) | . | . | 15 | . | -8
O=C(c1ccco1)N1CCN(S(=O)(=O)/C=C/c2ccccc2)CC1 | . | 8% | -2.8 | 5 | -5
CC(=O)Nc1ccc(NC(C)=O)s1 | -19 | 0% | -1.6 | 3 | -4
COc1cccc(OC)c1NC(=O)Cn1nc(-c2ccc3c(c2)OCCO3)ccc1=O | . | . | -2.4 | . | -1
Cc1cc(Br)ccc1OCc1nc(-c2cccnc2)no1 | -22 | -7% | 2.0 | -1 | 2
CCOC(=O)c1c(NC(=O)CSc2nncs2)sc(C)c1C | -9 | -7% | -1.8 | -11 | -2
COc1cc(C(=O)Nc2ccc3c(c2)OCO3)ccc1-n1cnnn1 | -28 | 0% | -3.5 | -5 | 3
CN(C)/C=C/C(=O)c1ccc([N+](=O)[O-])c(CS(=O)(=O)c2ccc(Cl)cc2)c1 | . | . | 2.7 | . | 0
Cc1noc(C)c1CSc1nnc(-c2ccccc2)n1Cc1ccco1 | -40 | -4% | 1.4 | 2 | -3
O=C(NNC1CC(=O)N(c2ccccc2)C1=O)c1ccc(COc2ccccc2Cl)o1 (configuration not stated) | -15 | -3% | 2.5 | -4 | 4
Cn1cnc(S(=O)(=O)N2CCN(c3ccc(Cl)cc3)CC2)c1 | . | . | -9.3 | . | 4
COc1ccc(C(=O)CN2C(=O)c3ccccc3S2(=O)=O)cc1 | . | -4% | 0.1 | . | -8
CCn1cc(CCC(=O)NCCN2CCOCC2)c2ccccc21 | . | . | 0.2 | . | -5
O=C(CCl)NN1C(=O)NC(c2ccccc2)(c2ccccc2)C1=O | . | . | 17 | . | 6
Cc1cc(C(=O)N/N=C/c2cc(Br)c(Br)o2)n[nH]1 | . | . | -1.0 | . | -4
COCCCN(C(=O)Cc1coc2cc(C)c(C)cc12)c1c(N)n(Cc2ccccc2)c(=O)[nH]c1=O | . | . | -0.3 | . | -9
Cc1cc(C)cc(OC(C)C(=O)Nc2ccc3c(c2)n(C)c(=O)n3C)c1 (configuration not stated) | . | . | -2.8 | . | -4
COc1ccc(NC(=O)N2CCCC(C(=O)Nc3cccc(C)c3C)C2)cc1 (configuration not stated) | . | . | 0.5 | . | 1
Cc1nn(CCOc2ccccc2)c(=O)n1-c1ccc(F)cc1 | -40 | 2% | -1.2 | 5 | 1
CC1CCC/C(=N/Nc2nc3ccccc3s2)C1 (configuration not stated) | . | 59% | -2.0 | 0 | 14
Cc1ccc(NC(=O)CC2NCCNC2=O)cc1Cl (configuration not stated) | . | -3% | 0.0 | 8 | 1
CCCCC(=O)NCCNC(=O)c1cc(OCC(F)(F)F)ccc1OCC(F)(F)F | -3 | -1% | -0.1 | 5 | -11
COc1cc2cc(CN(CCN3CCCC3)C(=O)Nc3ccccc3Cl)c(=O)[nH]c2cc1OC | -32 | . | . | 6 | -6
COc1ccccc1NC(=O)CSc1nc2ccccc2c(=O)n1CCNC(C)=O | -39 | 4% | -0.7 | -3 | 18
Cc1ccc2c(c1)c1c3n2CCCNC3CCC1 (configuration not stated) | -17 | 4% | -0.9 | -46 | -2
CC(C)(C)CC(C)(C)NCC(O)COc1ccc2c(c1)CCC2 (configuration not stated) | -10 | 10% | 0.8 | . | 95
C=CCn1cc(C=C2C(=O)N(C)C(=O)N(C)C2=O)c2ccccc21 | . | . | -3.0 | . | 6
Nn1c(Cc2ccccc2)nc2ccccc2c1=O | . | . | -0.4 | . | -10
CCOC(=O)C1=C(CS(=O)(=O)c2ccc(F)cc2)NC(=O)NC1c1cc(OC)c(O)c(OC)c1 (configuration not stated) | . | . | -5.5 | . | -3
Cc1ccccc1NC1=C(C(=O)c2ccccc2)N(C)S(=O)(=O)c2ccccc21 | -5 | -8% | 17 | -2 | 6
Cc1cc(OC(C)C(=O)NCC(O)c2ccccc2)c2c(C)cc(=O)oc2c1 (configuration not stated) | . | . | -1.0 | . | 0
NC(=O)CC(NC(=O)c1ccccc1)c1ccc(NCc2ccc(F)cc2)c([N+](=O)[O-])c1 (configuration not stated) | . | 1% | 4.2 | . | -12
Clc1ccc(-c2cc3ccccc3nc2N2CCCC2)cc1 | -40 | 9% | 16 | -8 | 97
CCCCCC(=O)Nc1ccc(S(=O)(=O)Nc2ccc(Cl)nn2)cc1 | -13 | . | 0.3 | 5 | 2
CCCCN(C)C(=O)CCCCn1c(=O)[nH]c2cc(OCC)c(OCC)cc2c1=O | -34 | -6% | -0.6 | -7 | 1
C=CCn1c(SCC(=O)NC2CCCC2)nnc1-c1ccncc1 | . | . | 1.7 | . | -2
CCOC(=O)c1sc(-c2ccccc2)cc1NC(=O)c1ccc(S(=O)(=O)N(CCOC)CCOC)cc1 | -31 | -1% | 0.6 | 3 | 1
O=C(Nc1ccc2oc(-c3ccccc3)nc2c1)C1CCCO1 (configuration not stated) | -27 | -2% | -2.7 | -6 | 5
Cc1ccc(C)c(NC(=O)C2=CCN(S(=O)(=O)c3ccc(F)cc3)CC2)c1 | -31 | . | -1.3 | 4 | -4
CCOc1ccc(CCNC(=O)COC(=O)COc2ccc(C(=O)CC)cc2)cc1OCC | . | . | -1.3 | . | 1
CCN(Cc1ccccc1)C(=O)CSc1nc(C)cc(C)c1C#N | -6 | 4% | 9.3 | -3 | 5 | Arbovirus anti repeat=-1
CCn1c(Cc2cccs2)nnc1SCC(=O)c1ccc(C)cc1 | -1 | 7% | 4.8 | 2 | 1
CCOC(=O)N1CCN(C(=O)COc2ccc(Cl)cc2C)CC1 | -23 | 1% | 0.5 | 7 | -5
O=C(COc1cc2oc(=O)c3c(c2cc1Cl)CCCC3)N1C[C@H]2C[C@@H](C1)c1cccc(=O)n1C2 | . | . | -3.4 | . | -9
Cc1ccc(C)c2[nH]c(=O)c(CCNC(=O)c3ccco3)cc12 | . | -10% | 1.1 | 13 | -11
COc1cc(OC)cc(C(=O)NCCC(=O)NCCc2ccc(OC)c(OC)c2)c1 | -21 | 5% | -0.4 | -2 | 5
COc1ccccc1CNC(=S)NCc1ccc(F)cc1 | . | . | 2.9 | . | -5
COc1cc(C)c(C#N)c(OC)n1 | -41 | -3% | -4.0 | 0 | -5
C=CCn1c(N)c(C(=O)Nc2cccc(C)c2)c2nc3ccccc3nc21 | 7 | 73% | 34* | -1 | 15

The last 5 compounds of the section before open the next one.
SMILES | YopH inh | Mtb H37Rv | RecA splice inh | Arbovirus anti | Mtb bLac sens | others
Cc1ccc(C)c2[nH]c(=O)c(CCNC(=O)c3ccco3)cc12 | . | -10% | 1.1 | 13 | -11
COc1cc(OC)cc(C(=O)NCCC(=O)NCCc2ccc(OC)c(OC)c2)c1 | -21 | 5% | -0.4 | -2 | 5
COc1ccccc1CNC(=S)NCc1ccc(F)cc1 | . | . | 2.9 | . | -5
COc1cc(C)c(C#N)c(OC)n1 | -41 | -3% | -4.0 | 0 | -5
C=CCn1c(N)c(C(=O)Nc2cccc(C)c2)c2nc3ccccc3nc21 | 7 | 73% | 34* | -1 | 15
Cc1ccc(-n2cc(C(=O)O)c(=O)cc2C)c(C)c1 | . | -1% | . | 7 | -4
Cc1nn(CC(=O)Nc2ccc(N3CCOCC3)cc2)c(C)c1Br | . | . | -0.9 | . | -6
CC12/C(=N/O)C3C4CC5C3/C(=N/O)C1C5C42 (configuration not stated) | -42 | 9% | -3.4 | 4 | -1
CCCc1nnc(NC(=O)Cn2c(=O)oc3ccccc32)s1 | -87 | . | -0.5 | 9 | -5
CN(C)NC1CCS(=O)(=O)C1 (configuration not stated) | -7 | -8% | -1.6 | 4 | -2
COc1ccc(C[C@H]2CN3C(=NC[C@@H]3Cc3ccc(O)cc3)N2CCNC(=O)c2ccc(C)c(Br)c2)cc1 | . | 4.4µM* | 10.0 | -22 | 100
CCCCCCCCc1c(O)nc(-n2[nH]c(C)c(CCO)c2=O)[nH]c1=O | . | -1% | 26 | 2 | 2
CCC1=NN(C(=O)c2ccc([N+](=O)[O-])cc2)C(O)(c2ccccc2)C1 (configuration not stated) | . | . | 8.8 | . | 20
COc1ccc(CN(C)Cc2nc3cc(OC)c(OC)cc3c(=O)[nH]2)c(OC)c1 | . | 4% | 1.0 | 1 | 3
O=C(/C=C/c1ccccc1)Nc1ccc(C(=O)N2CCCCC2)cc1 | . | 4% | -2.0 | -7 | 21
O=C(CCC(=O)n1ncc2ccccc21)NCc1ccccc1Cl | . | . | -5.0 | . | 1
Cc1cc(NC(=S)NC(=O)C2CC2)ccc1Br | -38 | 13% | 5.7 | 14 | 41
CCc1ccc(C(=O)CN2C(=O)NC(C)(CCc3ccccc3)C2=O)cc1 (configuration not stated) | -15 | 4% | 1.6 | 5 | -5
Cc1ccc(NC(=O)CSc2nnc(CNC(=O)c3ccccc3F)o2)cc1Cl | . | . | -8.9 | . | -5
COc1ccc(-c2nc(CN(C)C(C)c3ccon3)c(C)o2)c(C)c1C (configuration not stated) | . | -1% | 1.6 | -1 | 5
COc1ccccc1CCC(=O)Oc1ccc(C#N)cc1OC | . | . | 7.1 | . | 7
Cc1ccc(CNC(=O)N2CCN(S(=O)(=O)c3ccccc3)CC2)cc1 | . | . | -1.6 | . | 7
COCCNC(=O)[C@@]1(C)C=C[C@@H](Cc2ccccc2)N1C(=O)c1ccccc1 | . | . | 1.4 | . | 0
C=CCNC(=O)CC1C(=O)NCCN1Cc1c(F)cccc1Cl (configuration not stated) | . | 2% | 0.1 | 3 | 2
CCCCN(CC)Cc1ccc(CNC(=S)Nc2cccc(F)c2)o1 | . | -4% | -0.2 | -1 | -3
CSC1=C(C#N)C(c2ccncc2)C(C(=O)Nc2ccccc2)=C(C)N1 (configuration not stated) | . | 5% | 2.6 | 2 | 1
Cc1nc2ncnn2c(N2CCCC(C(=O)Nc3ccc4c(c3)CCC4)C2)c1C (configuration not stated) | -21 | 6% | 2.8 | -22 | 52
O=C(Cn1cnc2c(nnn2Cc2ccccc2F)c1=O)NCC1CCCO1 (configuration not stated) | -28 | -8% | -2.1 | 6 | -5
Cc1cccc(NC(=O)c2cc(NC(=O)C3CC=CCC3C(=O)O)ccc2N2CCOCC2)c1 (configuration not stated) | -7 | -5% | -1.5 | 6 | -16

4 consecutive compounds out of the list so far, quoted:
SMILES | YopH inh | Mtb H37Rv | RecA splice inh | Arbovirus anti | Mtb bLac sens | others
COCCNC(=O)[C@@]1(C)C=C[C@@H](Cc2ccccc2)N1C(=O)c1ccccc1 | . | . | 1.4 | . | 0
C=CCNC(=O)CC1C(=O)NCCN1Cc1c(F)cccc1Cl (configuration not stated) | . | 2% | 0.1 | 3 | 2
CCCCN(CC)Cc1ccc(CNC(=S)Nc2cccc(F)c2)o1 | . | -4% | -0.2 | -1 | -3
CSC1=C(C#N)C(c2ccncc2)C(C(=O)Nc2ccccc2)=C(C)N1 (configuration not stated) | . | 5% | 2.6 | 2 | 1
